Compound activity (PubChem)
PMP22 txn prim – Cell-based coincidence reporter assay to measure PMP22 gene transcription in S16 Pmp22-F2sN cells - Primary screen | S16 Pmp22-F2sN Schwann cells (luciferase reporters placed in the Pmp22 gene), FLuc/NLuc coincidence luminescence, 24 h | Potency, µM (highest dose often 57.5 µM), for inactives: at the top dose activity change, negative = inhibition, most hits filed as inhibitors | actives 2% (n = 43,000) | AID 1508649, 2021; active = clear falling dose curves in both reporters; inconclusive = both reporters move, but less clearly or upward; inactive = either reporter flat; the % is the NLuc reporter signal; also: % is scaled to controls: 0 for no effect and ±100 for the full control effect; some results filed as inactive show a strong effect at the top dose
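qHTS, 1536-well. Cells seeded, compounds added by pin tool, 24 h 37C. Nano-Glo reagent 1 (lysis/FLuc), 10 min RT, read; Stop&Glo, 10 min RT, read NLuc.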
HTT promoter inh – Primary qHTS for Identification of Small Molecule Inhibitors of Huntingtin Promoter Activity | HEK293 HTT promoter firefly luciferase reporter (activity 0% = vehicle and -100% = no light), 24 h | Potency, µM (highest dose often 57.5 µM), without a hit: at the top dose activity change, negative = inhibition, usual class: inhibitors | actives 0.93% (n = 48,000); active = well fitted inhibition curve with a large enough effect; inconclusive = small, poorly fitted or top-dose-only effect; inactive = no such curve, though single readings can be large or run the other way; also: nearly all actives have a fitted effect of over 50% in size
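HEK293 cells carrying firefly luciferase reporters were seeded at 2,500 per well in Opti-MEM and cultured for 24 h. They were then treated with compounds at up to 57.5 uM final for 24 h at 37 degrees C before Dual-Glo luminescence readout.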
The depositor's hits bear a star; u = inconclusive; x = not tested or not shown; & = joins results of further samples; [ ] = dose if it differs, or a comment. Potency is read from the fitted curve at half-maximal effect.

SMILES | PMP22 txn prim | HTT promoter inh
Cc1nc2ccn(Cc3cccnc3)c(=O)c2cc1C(=O)NCc1ccccc1 | -3% | u
CC(C)Cc1nn2c(=O)cc(COC(=O)c3ccccc3NC(=O)c3ccccc3)nc2s1 | -17% | -18%
Cc1ccc(NC(=O)C(Cc2ccccc2)NS(=O)(=O)c2ccc3c(c2)c(=O)n(C)c(=O)n3C)cc1 (stereo not given) | 4% | -18%
Cc1ccc(CNC(=O)c2ccc3c(c2)NC(=O)C(CS(=O)(=O)Cc2cccc(F)c2)N3)cc1 (stereo not given) | -4% | -16%
CCOC(=O)c1c(SCC(=O)Nc2nc3ccccc3s2)nc(=O)[nH]c1C | -10% | -20%
COc1ccc(NC(=O)CCNS(=O)(=O)c2cccc3nonc23)c(OC)c1 | 2% | -7%
OCc1cnc(SCc2cccc(F)c2)n1Cc1ccc(F)cc1 | -70% | -19%
Cc1ccc(NC(=O)C(CC(C)C)N2Cc3ccccc3C2=O)cc1F (stereo not given) | 13% | -12%
COc1ccc(CCNC(=O)c2ccc3c(c2)nc2n3CCC(C)C2)cc1OC (stereo not given) | -139% | -13%
CC(=O)Nc1cc(C(=O)NCc2ccc(F)cc2)ccc1Sc1ccc(C)cc1 | -17% | u
c1ccc(-c2cn(-c3ccccc3)c3ncnc(N4CCN(c5ccccc5)CC4)c23)cc1 | -2% | -16%
Cc1cccc(C)c1-n1ncc(C(=O)NC2CCCC2)c1C1CCN(C(=O)OC(C)(C)C)CC1 | u | -11%
CCn1c(C(=O)Nc2c(C)cccc2C)cc2sc(Cl)cc21 | 7% | u
Cc1ccc(OCc2nnc(SCC(=O)Nc3ccccc3C(C)C)o2)cc1 | 12% | -28%
COCCn1ccc2c(OCC(=O)NCc3ccc(F)cc3)cccc2c1=O | 1% | -3%
Cc1ccc(C)c(NC(=O)c2ccc3c(c2)CCN3S(=O)(=O)c2ccccc2)c1 | -16% | -30%
Cc1ccc(CNC(=O)CN2N=C(c3ccccc3)CCC2=O)cc1 | -4% | 4%
CCCC(=O)NCC(c1ccc2c(c1)OCO2)N1CCN(c2ccc(F)cc2)CC1 (stereo not given) | -19% | -22%
CCc1nn2c(-c3ccco3)ccnc2c1-c1ccc(F)cc1 | -10% | 31%[activator]
COc1ccccc1CNc1nc2ccc(Cl)cc2n2cnnc12 | 4% | -8%
Cc1cccc(NC(=O)COc2ccc3oc4c(c3c2)CCCC4)c1 | -16% | -9%
COc1ccc(N(C(=O)c2ccc(Cl)cc2)S(=O)(=O)c2ccc(C)cc2)cc1 | -9% | u
Cc1cc(C)c(Cn2c(=O)n(CCC(=O)NCc3ccc4c(c3)OCO4)c(=O)c3ccccc32)c(C)c1 | -14% | -3%
COc1ccc(NC(=O)c2cc3cc(C)ccc3n2C)cc1 | 2% | 3%
Cc1ccc(CNC(=O)c2ccc3c(c2)NC(=O)C(CS(=O)(=O)Cc2cccc(C)c2)N3)cc1 (stereo not given) | -30% | -20%
O=C(CSc1c2c(nc3ccc(Cl)cc13)CCCC2)N1CCCCC1 | u | -14%
Cc1cc(C(C)(C)C)c(O)c(C(C)(C)C)c1 | x | 3%
Cc1ccc(-n2ncc3c(NC4CCCCC4)ncnc32)cc1C | -9% | -27%
Cc1ccc(C)c(N2CCN(C(=O)Cn3c(=O)c4cccn4c4ccc(F)cc43)CC2)c1 | u | -4%
C[C@@H]1CN(c2c(F)c(N)c3c(=O)c(C(=O)O)cn(C4CC4)c3c2F)C[C@H](C)N1 | x | -1%&5%[25.2 µM]
Cc1oc(=O)oc1COC(=O)[C@@H]1N2C(=O)[C@@H](NC(=O)[C@H](N)c3ccccc3)[C@H]2SC1(C)C | x | 1%
CCOC(=O)c1c(C)oc2nc(C)nc(NCC3CCN(Cc4cc(C)ccc4C)CC3)c12 | -42% | 0%
Cc1c(CC(=O)NCCc2ccccc2)c(=O)oc2c(C)c3occ(C(C)(C)C)c3cc12 | -6% | -6%
CCc1ccc(-n2c(=O)c3cccnc3n2CC(=O)Nc2cc(OC)ccc2OC)cc1 | u | 1%
CCOC(=O)CC(NC(=O)CCc1c(C)nc2c(c(C)nn2-c2ccc(C)c(C)c2)c1C)c1ccc(C)cc1 (stereo not given) | -34% | -13%
COc1ccc(CCNC(=O)C(=O)NCC(c2ccco2)S(=O)(=O)c2ccccc2)cc1OC (stereo not given) | -24% | -11%
Cc1ccc(NC(=O)N2CCC(CN3CCCCCC3)CC2)c(Cl)c1 | u | 4%
Cc1ccc(OCC(=O)NCC2(N(C)C)CCCCC2)cc1C | -3% | -11%
COCCNC(=O)CCc1c(C)n(C)c2cc(-c3cc(OC)c(OC)c(OC)c3)nn2c1=O | 4% | 0%
CCC(C)(C)NC(=O)Cn1c(=O)ccc2cc(S(=O)(=O)N3CCC(C)CC3)ccc21 | -9% | u
COc1ccc(-c2c3c(=O)n(C)c(=O)n(C)c3c3c(-c4ccccc4)nc4ccccc4n23)cc1 | u | -8%[11.5 µM]
Cc1ccc(N2CCN(S(=O)(=O)c3ccc4[nH]c5c(c4c3)CCCCC5)CC2)c(C)c1 | u | -33%
COc1ccc(CCNCc2ccc3c(c2)n(C)c(=O)n3C)cc1OC | u | -7%
CCOc1ccc(NC(=O)CSc2ncc3c(n2)-c2ccc(Cl)cc2N(Cc2ccccc2)S3(=O)=O)cc1 | 7% | -12%
CCNC(=O)c1ccc2nc(Cc3ccccc3)oc2c1 | 1% | 33%[activator]
CCCC(=O)Nc1cc(C(=O)NCc2ccccc2)ccc1S(=O)(=O)c1ccc(Cl)cc1 | -3% | 22%
CCS(=O)(=O)N1CCC2(CC1)OC(=O)C(C)=C2C(=O)NCc1ccc(OC)c(OC)c1 | 4% | -13%
O=C(CSCc1ccc(F)cc1)N1CCc2c([nH]c3ccccc23)C1c1ccc(F)cc1 (stereo not given) | u | u
CCOC(=O)c1[nH]c(C)c(CCC(=O)Nc2cccc(SC)c2)c1C | 13% | -32%
Cc1ccc(NC(=O)C2CCN(S(=O)(=O)c3cccc4nsnc34)CC2)cc1 | 1% | -26%
Other results.
SMILES | PMP22 txn prim | HTT promoter inh
O=C(Nc1cccc(F)c1)c1oc2ccccc2c1NC(=O)C12CC3CC(CC(C3)C1)C2 | 2% | -13%
CC(=O)Nc1ccc(-n2c(CCC(=O)O)ccc2-c2ccc(C)cc2)cc1 | u | -25%
CCn1ccc2cc(S(=O)(=O)N3CCC(C(=O)NCc4ccc(F)cc4)CC3)ccc21 | -11% | -20%
CCOC(=O)C1CCN(S(=O)(=O)c2cc(-c3cc(C)no3)ccc2OC)CC1 | 0% | -25%
Cn1cc(S(=O)(=O)N2CCCCCC2)cc1C(=O)N1CCN(c2cccc(Cl)c2)CC1 | u | u
Cc1ccc2nc(N(Cc3cccnc3)C(=O)CCc3ccccc3)sc2c1 | 3% | -11%
Cc1cc(C)n2c(Nc3ccc4c(c3)OCCO4)c(-c3ccccc3)nc2n1 | -13% | -3%
O=S(=O)(c1ccc(Cl)cc1)c1nnn2c1nc(NCc1ccccc1)c1sccc12 | u | -13%
COc1cccc(Cn2c(=O)cc(C)c3c(C)nn(C)c32)c1 | u | u
COc1ccc(F)cc1S(=O)(=O)NCC(c1ccco1)S(=O)(=O)c1cccs1 (stereo not given) | 9.5µM* | -7%
Cc1ccc(C(=O)Nc2ccc(C(=O)O)cc2)cc1S(=O)(=O)N1CCC(C)CC1 | 11% | -23%
O=S(=O)(NCc1csc(-c2ccccc2)n1)c1ccccc1 | -4% | -11%
Cc1ccc(C(=O)Nc2ccc(Br)cc2)cc1S(=O)(=O)NCc1ccccc1 | -30% | u
O=C(NCCc1ccccc1)c1ccc(Cn2c(SCc3cccc(F)c3)nc3cccnc32)cc1 | 2% | -19%
CCOC(=O)c1c(S(=O)(=O)N2CCCC(C(=O)Nc3cccc(C#N)c3)C2)c(C)n(C)c1C (stereo not given) | 10% | -20%
COc1ccc(-c2nc(SCC(=O)Nc3c(C)cc(C)cc3C)n[nH]2)cc1 | -4% | -15%
CC(=O)Nc1nc2n(n1)C(c1ccc(F)cc1)C=C(c1ccc(Cl)cc1)N2 (stereo not given) | -5% | -17%
Cc1ccc(-c2c3c(=O)n(C)c(=O)n(C)c3c3cnc4ccccc4n23)cc1 | -5% | -4%
O=C(C1CCCCC1)N(Cc1cccnc1)c1nc2c(F)cc(F)cc2s1 | -30% | -29%
Cc1cc([N+](=O)[O-])ccc1NC(=O)CSc1nccn1C | 2% | -21%

Some of these compounds in order of heavy-atom count, smallest number first.
SMILES | PMP22 txn prim | HTT promoter inh
Cc1cc([N+](=O)[O-])ccc1NC(=O)CSc1nccn1C | 2% | -21%
CC(=O)Nc1nc2n(n1)C(c1ccc(F)cc1)C=C(c1ccc(Cl)cc1)N2 (stereo not given) | -5% | -17%
Cc1ccc(C(=O)Nc2ccc(C(=O)O)cc2)cc1S(=O)(=O)N1CCC(C)CC1 | 11% | -23%
CCOC(=O)c1c(S(=O)(=O)N2CCCC(C(=O)Nc3cccc(C#N)c3)C2)c(C)n(C)c1C (stereo not given) | 10% | -20%

(listing goes on)
SMILES | PMP22 txn prim | HTT promoter inh
CCOc1cc2[nH]c(=O)n(CCC(=O)N3CCN(c4ccccc4)CC3)c(=O)c2cc1OCC | u | -19%
COCCCNC(=O)N1[C@H](c2cccs2)[C@@H](C)C(=O)[C@@H](C)[C@@H]1c1cccs1 | -10% | -24%
COc1ccc(-c2noc(-c3ccc(NCc4ccco4)c([N+](=O)[O-])c3)n2)cc1 | -6% | -8%
Cc1cccc(C(=O)OCc2cc(=O)n3ccsc3n2)c1 | -1% | 8%
O=c1c(O)c(-c2ccc(O)c(O)c2)oc2cc(O)ccc12 | x | u
Cc1ccc(N(CC(=O)N2CCN(c3ccc(Cl)cc3)CC2)S(=O)(=O)c2c(C)nn(C)c2C)cc1 | 1% | -13%
CCN(CC)C(=O)c1sc2c(c1C)c(=O)n(-c1ccc(Cl)c(Cl)c1)c(=O)n2Cc1cc(=O)n2c(C)cccc2n1 | 0% | 0%
O=C(Nc1ccc(Cl)cc1Cl)c1cc(S(=O)(=O)N2CCc3ccccc32)ccc1F | 0% | -19%
Cc1ccccc1OCC(=O)Nc1nnc(S(=O)(=O)N2CCCC2)s1 | 2% | -11%
CCc1ccccc1NC(=O)CSc1nc2c(oc3ccccc32)c(=O)n1-c1ccccc1 | -6% | -13%

An excerpt of these results, in markdown:
| mol | PMP22 txn prim | HTT promoter inh |
| --- | --- | --- |
| CCOc1cc2[nH]c(=O)n(CCC(=O)N3CCN(c4ccccc4)CC3)c(=O)c2cc1OCC | u | -19% |
| COCCCNC(=O)N1[C@H](c2cccs2)[C@@H](C)C(=O)[C@@H](C)[C@@H]1c1cccs1 | -10% | -24% |
| COc1ccc(-c2noc(-c3ccc(NCc4ccco4)c([N+](=O)[O-])c3)n2)cc1 | -6% | -8% |
| Cc1cccc(C(=O)OCc2cc(=O)n3ccsc3n2)c1 | -1% | 8% |
| O=c1c(O)c(-c2ccc(O)c(O)c2)oc2cc(O)ccc12 | x | u |
| Cc1ccc(N(CC(=O)N2CCN(c3ccc(Cl)cc3)CC2)S(=O)(=O)c2c(C)nn(C)c2C)cc1 | 1% | -13% |

Two entries from above in another layout.
Each structure is followed by: PMP22 txn prim	HTT promoter inh
> COc1ccc(CCNCc2ccc3c(c2)n(C)c(=O)n3C)cc1OC
→ u	-7%
> Cc1ccc(-c2c3c(=O)n(C)c(=O)n(C)c3c3cnc4ccccc4n23)cc1
→ -5%	-4%

(continued)
SMILES | PMP22 txn prim | HTT promoter inh
COc1ccccc1C(=O)Nc1c(C(=O)NC(C)(C)C)oc2ccccc12 | u | -8%
COc1cc(OC)c(NC(=O)C(C)n2nc(-c3ccc(C)cc3)c3c(c2=O)CCCC3)cc1Cl (stereo not given) | u | u
CCOc1ccc(-c2cc(NC(=O)Nc3cccc(C(C)=O)c3)c(C(=O)OC)s2)cc1 | u | 71%[activator]
COCCn1c(C)cc(O)c(C(c2ccccc2OC)N2CCCCC2)c1=O (stereo not given) | 5% | -17%
Cc1ccc(NC(=O)CCNS(=O)(=O)c2cccc3nsnc23)cc1 | -8% | -1%
COc1ccccc1NC(=O)CSc1ncc2c(n1)-c1cc(Cl)ccc1N(C)S2(=O)=O | -24% | u
CCOCCCNc1nc2ccccc2n2c(CC)nnc12 | -2% | 35%
Cc1ccc(CCNC(=O)c2ccc3c(c2)nc2n3CCC(C)C2)cc1 (stereo not given) | 0% | 1%
COC(=O)c1nc2n(n1)C(c1cc(OC)ccc1OC)C(C(=O)Nc1ccc(C)cc1C)=C(C)N2 (stereo not given) | 26% | -9%
CC(=O)Nc1ccc(C(=O)CSc2nnc(-c3ccccc3)n2-c2ccccc2)cc1 | 10% | -24%
COc1ccccc1-c1nn(CCC(=O)Nc2ccc(C)cc2)c2nc(C)cc(C)c12 | u | -12%
O=C(Nc1cccc(Cl)c1)N1CCSc2ccccc21 | -35% | -5%
CCOc1ccccc1NC(=O)Cn1c(=O)n(Cc2ccccc2)c(=O)c2c1c1cc(C)ccc1n2C | 2% | -3%
Cc1cccc(C)c1NC(=O)Cn1c(=O)n(Cc2ccc3c(c2)OCO3)c(=O)c2oc3ccccc3c21 | 5% | -4%
Cc1ccc(NC(=O)Nc2nnc(N(CC(C)C)CC(C)C)s2)cc1Cl | 0% | 15%
Cc1ccc2c(CN3CCN(Cc4ccccc4Cl)CC3)cc(=O)oc2c1 | u | -7%
Cc1cccc(NC(=O)CSc2nc(=O)n(Cc3cccnc3)c3c2CCC3)c1C | 25% | -23%
